# Source: PubChem BioAssay
# Sa RN4220 lethal = S. aureus RN4220 growth inhibition | OD600, 16 h | inhibition, % (no concentration beside the values) | 330,000 tested, 0.33% active;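 active = z-score of -3 or lower and OD600 up to 0.18 on both plates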;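 note: plate controls were untreated cells for no effect and reference antibiotic for full effect; stock transfer was 100 nL into about 80 µL; one replicate is shown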
# Mtb hypoxia rep = inhibitors of hypoxia-regulated fluorescent reporter in Mycobacterium tuberculosis; fluorescence inhibition, % (concentration not given with the values); AID 1159583; 300,000 tested, 0.1% active; M. tuberculosis hypoxia-regulated fluorescent reporter, fluorescence;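 active = 35 to 45% if threefold the growth effect, above 45% if 1.5-fold the growth effect; inactive = the rest, general growth blockers included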;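 note: wells of about 50 µL received 100 nL stock; 0% = vehicle wells and 100% = reference inhibitor wells; whole bacteria with a GFP reporter of the hypoxia response; strong numbers were not always called active; many hits fall short of the cut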
# PrP 5UTR inh = suppresses PrP 5' UTR mRNA reporter expression. 340,000 tested, 0.35% active. inhibition, % (test concentration not listed). cell-based PrP 5' UTR mRNA reporter, plate reader. AID 488862;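 active = every replicate at 50% or more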;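 note: 0 = median of the neutral control wells; tested in H4 reporter cells; numbers are from one replicate; inactives centre near -14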
# Sa ugtP lethal = kills S. aureus RN4220 lacking UgtP | S. aureus RN4220 ugtP deletion, OD600 growth, 16 h; some inactives read as strong as hits | growth inhibition, % (test concentration not listed) | 330,000 tested, 0.54% active;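 active = z-score under -3 and OD600 up to 0.15 on both plates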;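 note: plate controls were untreated wells for no effect and antibiotic for full effect; wells of about 80 µL received 100 nL stock; the first replicate is given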
# Bead autofluor = flagged as autofluorescent in microsphere protease counterscreen. compound autofluorescence counterscreen, microsphere flow cytometry; active compounds read high. fluorescence intensity (concentration not given with the values). 360,000 tested, 3.1% active;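 active = at least 3 SD above the mean of all compounds, about 16000 in these data; inconclusive = too few beads counted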;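 note: 100 nL of 1 mM stock went into each well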
# BJeLR lethal = BJeLR cell viability loss | BJeLR (HRASV12) viability, CellTiter-Glo ATP luminescence, 48 h; reference of the scale not given here | inhibition, % (no concentration beside the values) | 300,000 tested, 0.17% active | AID 1554;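 active = replicate mean above 50%; inconclusive = above 50% but judged a plate artefact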;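 note: 50 nL library stock added to about 25 µL; numbers are from one replicate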
# Mtb hypoxia rep growth = also measured in Mtb hypoxia rep; calls as there; growth inhibition, %; measured here: M. tuberculosis growth (absorbance);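 0% = vehicle and 100% = reference antibiotic; read after six days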
# * marks the source's active call; other numbers are inactive results; ? = inconclusive; nt = not tested or not shown.
compound	Sa RN4220 lethal	Mtb hypoxia rep	Mtb hypoxia rep growth	PrP 5UTR inh	Sa ugtP lethal	Bead autofluor	BJeLR lethal
Cc1cccc(C(=O)NCC(=O)N2CCN(S(=O)(=O)c3ccc4c(c3)OCCO4)CC2)c1	-2.8	-7	6	-5	3	3745	nt
c1cc(Nc2cccc3nccnc23)c2nccnc2c1	10	-2	7	-38	-7	4152	-1
CCOCCCNC(=S)NCCCNc1nc2c(C)c(C)ccc2cc1C#N	3.7	7	14	-24	0	4999	nt
CCN(CC)NC(=S)Nc1ccccc1	-4.1	7	10	-14	-6	22619*	-3
Cc1ccc(S(=O)(=O)N2CC(C(=O)O)=CCC2c2ccc(Cl)cc2)cc1 (stereo not drawn)	9.8	9	9	nt	5	nt	nt
O=C(CCc1ccc(S(=O)(=O)N2CCOCC2)cc1)N1CCCC1	-3.1	-3	0	-9	2	23425*	-7
CCc1ccc(N/C(=N/c2nc(C)cc(C)n2)NC(C)=O)cc1	nt	nt	nt	-28	nt	3716	4
COc1ccc(N(CC(=O)NN=Cc2cc(Br)c(C)o2)S(=O)(=O)c2ccc(NC(C)=O)cc2)cc1	-2.6	-13	-5	nt	11	nt	nt
O=C(COC(=O)c1ccc(F)cc1Cl)Nc1cccc(S(=O)(=O)N2CCOCC2)c1	2.7	9	3	-17	3	2777	nt
Cc1cc(N)ncc1[N+](=O)[O-]	4.0	13	5	-11	7	2938	nt
COc1ccc(C(=O)/C=C/c2cccc(OCc3ccccc3)c2)cc1CSCC(=O)O	39	16	-2	-25	28	nt	3
Cc1c(CC(=O)NCCCO)c(=O)oc2cc3c(cc12)CCC(C)(C)O3	3.6	-7	9	-19	0	4264	-4
CCCCOCC(O)CCc1n[nH]c(=S)n1-c1ccccc1 (stereo not drawn)	6.9	17	0	80*	8	4397	-4
COc1ccc([C@@H]2C[C@@H](c3ccccc3)Oc3cc(C)cc(C)c32)cc1	nt	nt	nt	-3	nt	3860	4
COc1cccc(C=NNC(N)=S)c1OCc1cccc(Cl)c1	2.4	3	15	nt	0	nt	nt
CCc1ccc(CN(C)C(C)C(=O)Nc2ccc(S(=O)(=O)N3CCCC3)cc2)cc1 (stereo not drawn)	0.4	7	9	-14	2	6213	nt
C=CCn1c(COc2ccc(Cl)cc2)nnc1SCC(=O)N1CC(=O)Nc2ccccc21	6.3	13	7	-38	1	6067	-12
Cc1ccc(-c2nnn(CC(=O)N(c3ccccc3)C(C(=O)NC3CCCC3)c3ccco3)n2)o1 (stereo not drawn)	5.8	5	5	-18	-6	11233	-4
Cc1ccc2nc(SC(C)C(=O)N3CCCC3)[nH]c2c1 (stereo not drawn)	-1.3	3	-1	-34	5	3256	-5
Cc1csc2ncc(C(=O)NCc3ccccc3Cl)c(=O)n12	0.8	-3	7	-5	-7	5823	1
Cc1cccc2c1-c1sc(C(=O)N3CCc4ccccc4C3)cc1CO2	5.8	12	5	-13	9	5903	1
O=C(CCC(=O)OCC(F)(F)C(F)F)Nc1ccc(F)cc1F	4.1	10	0	-25	5	2481	-16
CCc1ccc(NC(=O)NNC(=O)CCc2ccccc2)cc1	1.3	-12	-13	-2	2	4063	1
COc1cccc(-n2nnc3c(=O)n(CC(=O)Nc4ccc(C)cc4)cnc32)c1	6.3	8	-3	-19	-1	2599	8
COC(=O)c1ccc(NC(=S)NCCCN2CCCC2=O)cc1	2.3	2	7	0	3	4716	-3
O=C(O)c1ccccc1C(=O)Nc1ccc(-n2ccc(C(F)(F)F)n2)cc1	3.1	5	3	-12	5	6216	2
CCN1CCN(c2ccc(Cl)cc2NC(=O)c2ccc(-n3nc(C)cc3C)cc2)CC1	1.9	12	4	16	9	nt	nt
Cc1nc2ccccc2nc1CN1CCC(CO)(CC2CCCCO2)CC1 (stereo not drawn)	0.9	-4	10	-12	8	2228	8
CC[n+]1ccc(C)c2cc(SC(F)(F)F)ccc21	-0.4	17	2	-7	4	2091	-4
CC(=O)C1CCC2C3CCC4=CC(=O)C=CC4(C)C3C(=O)CC12C (stereo not drawn)	5.1	14	5	-1	13	2886	nt
Cc1cc2ccccn2c1C(=O)c1cccc([N+](=O)[O-])c1	1.3	1	-9	-13	-4	3612	4
Cc1ccccc1NC(=O)COC(=O)C1CC2CCCC(C1)C2=O (stereo not drawn)	3.2	1	-1	-17	5	?	nt
C=CCC1C=CCC(CC=C)N1C(=O)c1ccccc1[N+](=O)[O-] (stereo not drawn)	7.1	6	5	-18	2	2069	16
CC1(C)C(CO)=CC(=O)C2=C1SCC(=O)N2	9.9	12	12	-15	3	4107	-12
COc1ccc(NS(=O)(=O)c2ccc(N3CCCC3=O)cc2)cn1	3.4	6	8	-33	9	4222	2
Cc1cc2c(NC3CCCCC3)ncnc2s1	5.9	0	-15	-19	-7	2993	7
Cc1c(NC(=O)C(C)Oc2ncnc3ccccc23)c(=O)n(-c2ccccc2)n1C (stereo not drawn)	-8.3	13	8	-14	4	2844	-8
CC(C)N(Cc1nc(-c2ccccc2)no1)C(=O)CCCN1C(=O)c2ccccc2C1=O	0.5	20	5	-25	7	7289	-5
Cc1ccc(OCC(=O)Nc2ccc(N3CCOCC3)cc2)c([N+](=O)[O-])n1	-2.6	7	0	8	-1	4627	-13
CCOc1ccc(S(=O)(=O)NCc2cccnc2)cc1	1.9	4	5	7	10	4048	1
C/C(C=NNc1nc(N2CCCCC2)nc(N2CCCCC2)n1)=C/c1ccccc1	-4.9	-17	3	nt	2	nt	nt
Cc1ccccc1CNC(=O)CCn1nc(C)c2c(C)n(-c3ccccc3)nc2c1=O	3.0	14	3	-12	8	4853	-21
COc1ccc2c(c1)nc(SCC(=O)c1cccs1)n2C	7.4	20	6	-31	12	8761	0
COc1ccc(-c2ccc(C(C)=O)cc2)cc1C1C2C=CCC(C)C2C(=O)N1Cc1ccccc1 (stereo not drawn)	-1.6	-1	-2	nt	1	nt	nt
Cc1c(C(=O)N2CCc3ccccc3C2)oc2ccc(Br)cc12	13	11	4	-11	-1	6730	5
CCOC(=O)CN(C(=O)c1ccccc1[N+](=O)[O-])C(C)(C)C	6.2	11	1	-4	-1	5804	-7
COc1ccc(CNC(=O)COC(=O)c2ccc(C)c(S(=O)(=O)N3CCOCC3)c2)cc1OC	4.9	0	-3	-18	2	?	nt
CCCOc1ccc2nc(C)c(CCC)c(SC(=N)N)c2c1	3.8	0	7	-13	5	5541	-10
CC(C)CC1Nc2ncnc(N3CCCCC3)c2N(Cc2ccc(Br)cc2)C1=O (stereo not drawn)	8.9	5	2	-34	8	4057	4
CN1CCN(CCCNC(=O)c2ccc(/C=C3\Oc4ccccc4N(Cc4ccccc4F)C3=O)cc2)CC1	-5.5	-2	0	-10	-20	5518	-11
Cc1noc(C)c1COC(=O)[C@H](C)NS(=O)(=O)c1ccc(Cl)c(Cl)c1	nt	nt	nt	-13	nt	2936	14
COc1ccc(-c2csc3ncn(Cc4ccccc4)c(=O)c23)cc1	4.7	-2	0	-3	20	3850	8
COc1cc(SC)ccc1C(=O)NNC(=O)C1COc2ccccc2O1 (stereo not drawn)	-1.7	4	5	-5	-6	2881	nt
O=C(NCCCN1CCOCC1)C(=O)NCC1OCCN1S(=O)(=O)c1ccc(Br)cc1 (stereo not drawn)	-0.8	3	-1	-14	0	6824	9
Cc1cc(C)nc(SC2CC(=O)N(c3ccc(C)c(C)c3)C2=O)n1 (stereo not drawn)	3.6	6	-1	-5	1	3157	-3
O=C(CN1CCC(NC(=O)Cc2ccccc2)CC1)Nc1cccc2ccccc12	1.0	2	2	-19	7	10918	5
N#CC(C#N)=Cc1cc2ccccc2nc1N1CCCCC1	13	8	3	-15	14	1971	-15
O=C(Oc1cccnc1)c1ccc([N+](=O)[O-])cc1	2.2	1	1	-4	2	2151	-7
CCOC(=O)N1CCN(S(=O)(=O)c2ccc(C(=O)N(CCCN(C)C)c3nc4c(C)c(C)ccc4s3)cc2)CC1	-3.4	5	-2	-7	-11	6782	-7
O=C(NCc1cccc(Br)c1)C1CC2Cn3c(nc4ccccc43)C2N1Cc1ccccc1 (stereo not drawn)	4.9	7	10	-7	5	3778	12

# (next part)
compound	Sa RN4220 lethal	Mtb hypoxia rep	Mtb hypoxia rep growth	PrP 5UTR inh	Sa ugtP lethal	Bead autofluor	BJeLR lethal
COc1ccc(/C=C(\NC(=O)c2ccccc2)C(=O)N2CCN(C)CC2)cc1OC	3.6	-12	-1	-20	7	3457	-8
Cn1nc(C(=O)NNC(=O)c2cccc(Cl)c2)c2ccccc2c1=O	2.9	5	5	-33	3	3856	nt
O=C1CC2c3c(cccc3CN1Cc1ccccc1Cl)CC(O)C2O (stereo not drawn)	11	15	12	nt	7	nt	nt
CCOc1ccc(NC(=O)C2CCN(S(=O)(=O)c3ccc4c(c3)C(C)(C)C(=O)N4C)CC2)cc1	-1.4	-3	2	-27	-23	6558	6
Cc1noc(C)c1C(=O)Nc1ccc2c(c1)CCC2	-2.2	-3	-1	-23	-6	9793	-1
COc1ccccc1CNc1ccccc1F	3.9	6	8	-16	10	3692	-8
COCC(=O)NCCc1nc2ccccc2[nH]1	2.1	10	7	-23	6	6783	-7
CCOC(=O)C1=C(CN2CCN(C(=O)c3ccco3)CC2)NC(=O)NC1c1ccc(F)cc1 (stereo not drawn)	0.8	-2	6	-16	1	5447	-1
Cc1c(OC(C)C(=O)NCC(O)c2ccccc2)ccc2c3c(c(=O)oc12)CCC3 (stereo not drawn)	5.5	-5	1	-2	-1	5418	2
COc1ccc(NC(=S)Nc2ccccn2)c(OC)c1	0.1	nt	nt	-33	14	2361	-8
CCCCOc1ccc(-n2nc(C)cc2C)nn1	1.5	nt	nt	-56	1	5882	-8
O=c1[nH]nc(-c2ccc(NCCO)c([N+](=O)[O-])c2)c2ccccc12	5.8	9	-5	-15	14	3308	-1
CCOC(=O)c1nn(-c2ccccc2)c(=O)c2c(NC(C)=O)scc12	4.1	13	3	-16	-4	4248	3
Cc1cc(=O)[nH]c(N/N=C/c2c(C)nn(-c3ccccc3)c2C)n1	nt	nt	nt	-18	nt	3308	1
Cc1ccccc1-n1c(C)cc(/C=C(\C#N)C(=O)NCC2CCCO2)c1C (stereo not drawn)	0.5	-4	3	6	0	4479	3
CON=C/C(C#N)=C/c1cc(C(=O)c2ccccc2)cn1C	1.9	-4	14	nt	-3	nt	nt
Oc1ccc(/C=N/Nc2ccccc2)cc1	nt	nt	nt	19	nt	4150	1
COc1ccc([N+](=O)[O-])cc1NS(=O)(=O)c1cccc(C(=O)NCCCN2CCCC2=O)c1	3.7	12	10	1	4	4053	nt
Cc1cc(CN(C)C(=O)C2CCC(=O)N(CCc3ccccc3)C2)n[nH]1 (stereo not drawn)	3.0	-1	14	3	2	6453	-5
CCOC(=O)Cc1nnc(NC(=O)c2ccccc2OC)s1	3.1	nt	nt	-33	-1	4441	1

# Pulled by compound from the entries so far, three records:
compound	Sa RN4220 lethal	Mtb hypoxia rep	Mtb hypoxia rep growth	PrP 5UTR inh	Sa ugtP lethal	Bead autofluor	BJeLR lethal
COc1ccc(/C=C(\NC(=O)c2ccccc2)C(=O)N2CCN(C)CC2)cc1OC	3.6	-12	-1	-20	7	3457	-8
Cn1nc(C(=O)NNC(=O)c2cccc(Cl)c2)c2ccccc2c1=O	2.9	5	5	-33	3	3856	nt
COCC(=O)NCCc1nc2ccccc2[nH]1	2.1	10	7	-23	6	6783	-7

# More results follow:
compound	Sa RN4220 lethal	Mtb hypoxia rep	Mtb hypoxia rep growth	PrP 5UTR inh	Sa ugtP lethal	Bead autofluor	BJeLR lethal
CCCc1cc(=O)oc2cc(OCC(=O)NC(Cc3ccc(Cl)cc3)C(=O)O)ccc12 (stereo not drawn)	1.8	nt	nt	-15	-12	5045	1
COc1ccc(OC)c(NC(=O)CN(C)CC(=O)Nc2ccccc2Cl)c1	1.2	1	1	-7	1	3359	-2
Cc1nc2scc(-c3ccccc3)c2c(=O)o1	-3.1	2	-3	1	-7	6576	-6
O=C(Nc1cccc(C(=O)Nc2ccccc2F)c1)c1ccccc1	5.5	0	2	-19	14	3871	-3
